# High-throughput results deposited in PubChem by PCMD.
# Biofilm kill mix – mixture kills Candida albicans biofilm cells | C. albicans biofilm persisters + clotrimazole, fluorescence viability; primary screen in compound mixtures of four per well | inhibition, % at 7.6 µM | 120,000 tested, 0.02% active | AID 1242;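 active means inhibition above 30.3% in the primary screen of four-compound pools, then above 30% when the compound was retested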;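 further: compounds exposed to preformed 24 h biofilms for 48 h; the number belongs to the whole pool; some results filed as inactive read as strong as hits; inactives centre near 12; 0% = biofilm with clotrimazole alone and 100% = kill control; retested singly at about 60 µM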
#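 Test system: C. albicans CAF4-2 wild-type biofilms; buffer or medium: RPMI/MOPS medium, pH 7.0; schedule: 24 h biofilm formation, then 48 h compound exposure, 37 °C; detection: Alamar Blue fluorescence; measure: percent inhibition of biofilm viability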
# * hit, by the source's call.
cpd	compound	Biofilm kill mix
1	Cn1c(SCC(=O)NCCc2ccc(S(N)(=O)=O)cc2)nc2ccccc2c1=O	8.7
2	O=C(Cc1ccccc1)NCC(=O)N1CCCCC1	14.0
3	NC(=O)/C=C/C(=O)Nc1ccc(Cl)cc1	7.0
4	COc1cccc(NC(=O)c2ccc(NCCCN3CCC(C)CC3)c([N+](=O)[O-])c2)c1	11.6
5	NC(=O)C1CCN(CC(O)CSc2ccccc2)CC1 (configuration not stated)	3.2
6	Cc1cc(C)nc(/N=C(\N)Nc2ccc(S(=O)(=O)Nc3nc(C)cc(C)n3)cc2)n1	8.4
7	CC1=NNC(=O)C1CC(=O)N/N=C/C=C/c1ccccc1 (configuration not stated)	13.3
8	COC(=O)C(C)N=Cc1ccccc1 (configuration not stated)	18.7
9	Cc1ccc(C(=O)N/C(=C\c2cccc([N+](=O)[O-])c2)C(=O)OCN2C(=O)c3ccccc3C2=O)cc1	16.7
10	CCOc1ccc(N2C(=O)CC(N(Cc3ccco3)C(=O)CC)C2=O)cc1 (configuration not stated)	7.0
11	Cc1ccc(OCC(=O)Nc2ccccc2-c2ccccc2NC(=O)COc2ccc(C)cc2)cc1	7.3
12	O=C1NC(=S)N(C(=O)c2ccc(F)cc2)/C1=C/c1cccnc1	11.6
13	Cc1cc(N2CCOCC2)n2cc(-c3ccc(F)cc3)nc2n1	-0.2
14	Cn1c(N)c(C(=O)COC(=O)C(Cc2ccccc2)NC(=O)c2ccccc2)c(=O)n(C)c1=O (configuration not stated)	7.0
15	C=CCNC(=O)/C(C#N)=C\c1cc(Cl)c(OCC)c(OC)c1	19.3
16	C/C(=N\NC(=O)c1c(-c2ccccc2Cl)noc1C)c1cccc(NC(=O)C(C)C)c1	11.8
17	COC(=O)NNC(=O)/C=C/c1ccccc1	17.0
18	COc1ccc(/C=N/Nc2nc3ccccc3[nH]2)cc1OC	8.1
19	O=C(NCCCc1ccccc1)c1cc([N+](=O)[O-])ccc1Cl	7.7
20	N#CC1=C(N)N2C(=C(C#N)C1c1cccc(Br)c1)Nc1ccccc12 (configuration not stated)	16.1
21	COc1ccc(-c2cc(C(=O)O)c3sc(N4CCCCC4)nc3n2)cc1OC	5.5
22	O=Cc1cn[nH]c1-c1ccccc1	11.1
23	CCC/C=C(\CCC)C(NS(=O)(=O)c1cccc2cccnc12)c1ccc(C(=O)OC)cc1 (configuration not stated)	9.3
24	CCNC(=O)c1c(NC(=O)c2cc(-c3cc(C)ccc3O)n[nH]2)sc2c1CCCC2	9.2
25	COCCSc1nnc(NS(=O)(=O)c2ccc(C)cc2)s1	4.9
26	CCc1ccc(N(C(=O)c2csnn2)C(C(=O)NC(C)(C)C)c2ccccn2)cc1 (configuration not stated)	-0.3
27	C=CCOc1c(CNc2ccc(C(=O)O)cc2)cccc1OC	2.0
28	CCOc1ccccc1NC1=NC2CS(=O)(=O)CC2S1 (configuration not stated)	21.9
29	CC1(C)CN=C(N(Cc2ccccc2)C(=O)Nc2ccccc2)S1	14.2
30	O=[N+]([O-])c1ccc(OCCn2cnc3ccccc32)cc1	21.8

# Overlap with the part before: 2 compounds, then new ones.
cpd	compound	Biofilm kill mix
29	CC1(C)CN=C(N(Cc2ccccc2)C(=O)Nc2ccccc2)S1	14.2
30	O=[N+]([O-])c1ccc(OCCn2cnc3ccccc32)cc1	21.8
31	COc1ccc(C(CCN)Cc2ccccc2)cc1 (configuration not stated)	0.8
32	O=C(NC1CCN(Cc2ccccc2)CC1)C(NS(=O)(=O)c1cccc2nsnc12)c1ccccc1 (configuration not stated)	10.2
33	O=C(CCS(=O)(=O)c1ccc(Cl)cc1)Nc1ccc(N2CCOCC2)cc1	29.6
34	CN1C(C(=O)NCc2cccc(Br)c2)CC2Cn3c(nc4cc5ccccc5cc43)C21 (configuration not stated)	16.8
35	COc1ccc(OC)c2[nH]c(=O)c(CCNC(=O)Cc3cccs3)cc12	13.7
36	O=C1Cc2ccccc2N1c1c(Cl)cccc1Cl	-5.8
37	O=C(CCCO)NC1Cc2ccccc2C1	21.2
38	CCOC(=O)C1CCN(C(=O)C(C)N(c2ccc(Oc3ccccc3)cc2)S(C)(=O)=O)CC1 (configuration not stated)	5.9
39	CCOc1ccc(C(=O)Nc2nc(C)cc(C)n2)cc1[N+](=O)[O-]	26.9
40	CC1CC(C)CN(S(=O)(=O)c2ccc(C(C)(C)C)cc2)C1 (configuration not stated)	-2.4
41	CCN(CC)C(=O)COc1cc(C)c(Cl)c(C)c1	11.4
42	O=C(COC(=O)c1cc[n+]([O-])cc1)Nc1ccc(F)c([N+](=O)[O-])c1	4.3
43	O=C1CC(N2CCN(Cc3ccccc3)CC2)C(=O)N1 (configuration not stated)	7.2
44	O=C(Nc1ccc(-c2cnco2)cc1)c1ccc(Cl)cc1	17.6
45	COc1ccc(S(=O)(=O)Nc2nnc(Cc3ccc(OC)c(OC)c3)s2)cc1	17.8
46	Cn1nc(C(F)(F)F)c(-c2ccccc2)c1NC(=O)c1ccco1	15.1
47	CN(C)CCn1c(=O)n(-c2cccc(Cl)c2)c(=O)c2c3c(sc21)CCCCC3	15.8
48	CC(=O)C1CCC2C3CCC4=CC(=O)CC[C@]4(C)[C@@]3(F)C(O)C[C@]12C (some centres not stated)	13.7
49	Cc1ccnc(NS(=O)(=O)c2cccc([N+](=O)[O-])c2)c1	14.3
50	COCCCn1c(SCC(=O)c2ccccc2)nc2ccccc2c1=O	12.9
51	O=C(O)c1ccc(N2C(=O)C3C4c5ccccc5C(Br)(c5ccccc54)C3C2=O)cc1 (configuration not stated)	16.2
52	Cn1cccc1/C=C1\SC(=O)N(c2ccccc2)C1=O	14.9
53	COc1ccc(NC(=S)NN2CCN(C)CC2)cc1OC	8.4
54	Nc1nc(-c2ccc(F)cc2)cs1	-4.0
55	O=C(NCc1cccnc1)C(=O)NCC(c1ccco1)N1CCN(c2ccccc2)CC1 (configuration not stated)	15.9
56	O=C(CSc1nc2ccccc2[nH]1)N/N=C/c1ccncc1	15.7
57	COc1cc(C(=O)NCCNC(=O)C2CCCNC2=O)cc(OC)c1OC (configuration not stated)	19.1
58	O=C(O)c1cccc(-c2ccc(/C=N/Nc3nn[nH]n3)o2)c1	13.2
59	Cc1nc2ccccc2c(=O)n1/N=C/c1ccccc1O	12.3
60	CC1Oc2ccccc2N(CC(=O)NCc2ccc3c(c2)OCO3)C1=O (configuration not stated)	12.5

# Quoted at random: three entries already listed.
cpd	compound	Biofilm kill mix
43	O=C1CC(N2CCN(Cc3ccccc3)CC2)C(=O)N1 (configuration not stated)	7.2
50	COCCCn1c(SCC(=O)c2ccccc2)nc2ccccc2c1=O	12.9
55	O=C(NCc1cccnc1)C(=O)NCC(c1ccco1)N1CCN(c2ccccc2)CC1 (configuration not stated)	15.9

# Additional entries
cpd	compound	Biofilm kill mix
61	COC(=O)c1scc(S(=O)(=O)C(C)(C)C)c1-n1cccc1	11.9
62	CC(C)NC(=O)[C@H](CSCc1ccccc1)N1Cc2ccccc2C1=O	7.5
63	CN(C(=O)Nc1cccc(C(F)(F)F)c1)C1CCCCC1	17.3
64	Cc1ccc(O)c(NC(=O)/C=C/C(=O)O)c1	7.8
65	N#Cc1ccc(Oc2ccc(NC(=O)C3CC=CCC3C(=O)O)cc2)cc1 (configuration not stated)	24.6
66	Cc1cc(/C=C2\SC(=S)N(Cc3ccco3)C2=O)c(C)n1-c1ccccc1	12.6
67	Cc1[nH]c2ccccc2c1C(=O)C(=O)NCCOc1ccccc1	14.6
68	N#CCCN(Cc1cccs1)C(=O)c1ccc(Cl)cc1	11.4
69	CC(C)c1cc(NC(=O)CCl)on1	12.0
70	COc1ccc(CCNC(=O)CSc2ccc(-c3ccncc3)nn2)cc1	13.7
71	COC(=O)c1c(C(=O)OC)c(-c2ccc(C(C)(C)C)cc2)n2c1CS(=O)C2 (configuration not stated)	-3.8
72	O=C(NCc1ccccn1)C1CN(S(=O)(=O)c2ccccc2)CCN1S(=O)(=O)c1ccccc1 (configuration not stated)	9.5
73	Cc1ccc(-n2nnc(-c3cc4ccccc4nc3Cl)n2)cc1	0.3
74	Cc1[nH][nH]c(=O)c1C(c1ccc(N(C)C)c(Br)c1)c1c(C)[nH][nH]c1=O	9.7
75	COc1ccc(C(=O)CC(=O)c2ccccc2O)cc1OC	28.7
76	CCOC(=O)c1sc(NC(=O)c2cccc(S(=O)(=O)N3c4ccccc4CC3C)c2)cc1C (configuration not stated)	4.5
77	Nc1c2c(nc3sc4c(c13)CCCC4)-c1ccccc1CC2	31.3
78	COc1ccc(C(=O)N/N=C(\C)c2ccc3c(c2)C2C=CCC2C(c2ccccc2)N3)cc1 (configuration not stated)	15.4
79	COCCN(Cc1cc2cc(C)ccc2nc1Cl)C(=O)Nc1ccccc1OC	12.4
80	O=C(NCCC1=CCCCC1)C1CCN(S(=O)(=O)c2ccc(Br)s2)CC1	15.8
81	O=C1Oc2ccccc2C(=O)/C1=C/N1CCN(c2ccccc2F)CC1	-13.5
82	Cc1ccc(S(=O)(=O)N2CCCCC2)cc1NC(=O)Cn1cnnn1	20.0
83	O=C(NNc1ccccc1)C(=O)NNS(=O)(=O)c1ccc(CCCl)cc1	19.5
84	O=C(NNc1nc2c(F)cccc2s1)C1COc2ccccc2O1 (configuration not stated)	5.8
85	COc1cc(/C=N\Nc2nc(-c3cccs3)c(NC(C)=O)s2)ccc1O	20.8
86	CCN(CC)S(=O)(=O)c1ccc(NC(=O)COC(=O)c2cnc(C)cn2)cc1	11.6
87	CCCCc1ccc(NC(=S)NCCc2ccc(S(N)(=O)=O)cc2)cc1	15.3
88	CCOC(=O)C1=C(O)/C(=C/c2ccc(OCC(=O)O)c(OC)c2)SC1=Nc1ccc(OC)cc1	21.1
89	CCOc1ccc(N(CC(=O)NN=C2CCCC2)S(C)(=O)=O)cc1	3.5
90	O=C(O)CCCNC(=O)Cc1ccccc1	23.5

# Single values from the list.
# For Biofilm kill mix, compound 48 has 13.7
# For Biofilm kill mix, compound 38 has 5.9
# For Biofilm kill mix, compound 19 has 7.7
# For Biofilm kill mix, compound 83 has 19.5
# For Biofilm kill mix, compound 57 has 19.1

# New compounds follow.
cpd	compound	Biofilm kill mix
91	CSc1ccc(S(=O)(=O)NC(C)c2ccccc2)cc1 (configuration not stated)	8.0
92	C=CCc1ccc2oc(C(=O)OCC)cc(=O)c2c1O	23.5
93	Cc1ccc(Nc2ccc(N3CCN(c4ccc([N+](=O)[O-])cc4)CC3)nn2)cc1	17.9
94	CCOc1ccc(Br)cc1S(=O)(=O)Nc1ccc(Cl)c(S(=O)(=O)N(CC)c2ccccc2)c1	-3.0
95	O=C(NNC(=O)c1cccc(S(=O)(=O)N2CCN(c3ccccc3)CC2)c1)c1ccc(Cl)cc1	6.8
96	Nn1c(SCC(=O)N2CCCc3ccccc32)nncc1=O	12.4
97	Cc1ccc(C(=O)NC2(C(Cl)Cl)N=C(c3ccccc3)N=C2N)cc1 (configuration not stated)	-3.0
98	Cc1cc(C)c2c(c1)/C(=c1/sc3n(c1=O)CN(c1ccccc1)CN=3)C(=O)N2	18.2
99	Cc1nc(-c2nnc(SCC(=O)Nc3cc(Cl)cc(Cl)c3)n2C)cs1	31.4
100	CCCN(Cc1ccccc1)C(=S)Nc1cccc(C(F)(F)F)c1	-4.2
101	COc1cc(/C=N/NC(=O)CNc2n[nH]c(=O)[nH]c2=O)ccc1O	-3.6
102	Cc1cc(C)c(O)c(C2(O)C(=O)c3ccccc3C2=O)c1	19.7
103	O=C(NCCc1ccccc1)C1CCN(c2ncccn2)CC1	9.3
104	CCn1c(=O)c([N+](=O)[O-])c(N2CCN(Cc3ccc4c(c3)OCO4)CC2)c2ccccc21	20.0
105	CCOC(=O)C1CCN(CCC(=O)Nc2ccc(C)cc2)CC1	13.7
106	COc1ccccc1N1CCN(C(c2ccccc2)c2nnnn2CCc2ccccc2)CC1 (configuration not stated)	14.4
107	COc1ccc(C)cc1S(=O)(=O)Nc1ccc2c(c1)OCO2	20.2
108	NC(=O)[C@@H]1CC2(CC(c3cccc(NC(=O)[C@@H]4CCC(=O)N4)c3)=NO2)CN1C(=O)Cc1ccc([N+](=O)[O-])cc1 (some centres not stated)	15.5
109	Cc1nc2cc(N=NC3=C(O)CCCC3=O)ccc2s1	6.2
110	COc1ccc2cc(-c3[nH]ncc3CN3C[C@@H]4CCC[C@H]3C4)ccc2c1	24.6
111	CC(Sc1nc(NC(C)(C)C)nc(N(C)C)n1)C(=O)Nc1ccccc1 (configuration not stated)	20.5
112	O=C(COC(=O)CCCOc1ccc(Cl)cc1Cl)Nc1cccc(Cl)c1	-4.3
113	C#CC(CC)(CC)NC(=O)c1ccc(Br)s1	2.3
114	CCN(CC)c1ccc(C(=O)N/N=C(\C)c2cccnc2)cc1	9.3
115	O=C(CCc1nnc(-c2ccc(-c3ccccc3)cc2)o1)NCCc1ccccn1	27.6
116	Cc1[nH]n(-c2ccccc2)c(=O)c1C=NC1CCCCCC1	15.7
117	CC(C)NC(=O)c1ccc2c(=O)n(CC3CCCO3)c(=S)[nH]c2c1 (configuration not stated)	12.9
118	O=C1c2ccccc2C(=O)C12OC(c1ccccc1)C1(C(=O)c3ccccc3C1=O)C2c1cccc([N+](=O)[O-])c1 (configuration not stated)	8.7
119	O=C(CSc1nnc(-c2ccco2)o1)c1ccccc1Cl	10.0
120	CCSc1nnc2ccc(-c3ccco3)nn12	14.0
121	COC(=O)Nc1nnc(-c2ccccc2OC)s1	23.3
122	Cc1ccc(-c2csc3nc(SCC(=O)N(C)C)n(Cc4ccccc4)c(=O)c23)cc1	16.5
123	CCOC(=O)C1(Cc2cccc(OC)c2)CCN(Cc2cccc3cnccc23)CC1	-0.9
124	CC(/C=C/c1ccco1)=N/NC(=O)OC(C)(C)C	3.7

# From entry 120 up to 121, copied from above:
cpd	compound	Biofilm kill mix
120	CCSc1nnc2ccc(-c3ccco3)nn12	14.0
121	COC(=O)Nc1nnc(-c2ccccc2OC)s1	23.3

# Not all compounds are listed, so the mix of outcomes need not match the whole.
